Assay outcomes: PubChem BioAssay, several laboratories
Vif TR-FRET – HIV-1 Vif–A3G interaction blockers – biochemical, TR-FRET, GST-Vif 1-94, biotin-A3G peptide, dose response retest, primary screen (AID 1117319); TR-FRET GST-Vif / biotin-A3G peptide binding; higher % means a stronger effect; test concentration not given here; strong numbers were not always called active; one-dose inhibition, %; IC50 in µM for titrated hits; 0.57% of 260,000 active;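 active = above the screen mean plus three standard deviations and confirmed in dose response; inconclusive = results disagree or hit not tested in dose response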;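 also: Vif residues 1-94 fused to GST binding biotinylated APOBEC3G peptide 110-148; 0% = full assay without inhibitor and 100% = GST in place of GST-Vif; retest series ran down from 100 µM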
Beta2AR agonist – activates human beta-2 adrenergic receptor causing internalization; P07550; 0.43% of 340,000 active; response, % (test concentration not listed); Am2.2-beta2AR cells, FAP receptor internalization, flow cytometry; reference of the scale not given here;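 active = response above a set limit, near 3 SD of response in nonfluorescent compounds, cut at about 42% in these data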;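 also: stock transfer was 100 nL into about 11 µL; a reference agonist was the positive control; negative values mostly stem from fluorescent compounds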
Target sequence (P07550 whole entry, looked up): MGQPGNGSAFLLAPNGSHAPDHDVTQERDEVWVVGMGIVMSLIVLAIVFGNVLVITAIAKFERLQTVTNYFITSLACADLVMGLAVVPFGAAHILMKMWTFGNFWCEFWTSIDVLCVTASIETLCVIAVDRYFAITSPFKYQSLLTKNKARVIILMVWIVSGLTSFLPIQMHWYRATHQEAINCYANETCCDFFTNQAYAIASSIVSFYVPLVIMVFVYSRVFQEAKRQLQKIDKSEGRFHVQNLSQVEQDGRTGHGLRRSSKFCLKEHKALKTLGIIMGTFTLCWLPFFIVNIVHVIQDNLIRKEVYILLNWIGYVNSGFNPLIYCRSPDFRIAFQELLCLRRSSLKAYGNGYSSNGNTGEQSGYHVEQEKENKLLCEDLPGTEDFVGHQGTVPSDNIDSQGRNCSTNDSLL
HNF4A DNA FP – change in binding of human HNF4 alpha to DNA; P41235; HNF4a-FITC DNA binding, fluorescence polarization, 1 h; activity change, % at 10 µM; 0.3% of 360,000 active; AID 1224865; in the data active = activity change above about 30%, passing the limit was not always enough;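 also: controls were the assay level and a saturating level of protein; the project sought stronger binding though the title names inhibitors; some compounds called inactive have numbers as strong as hits; positive values seem to mean higher polarization but the record does not say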
Bfl-1 A1 inh – inhibitors of the anti-apoptotic protein A1, read as caspase activation; MEF A1-2A-BIM cells, Caspase-Glo 3/7 luminescence, 3 h; percent of clofoctol response, vehicle zero; caspase activation, % (test concentration not listed); 0.066% of 330,000 active; AID 2462;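 active = over half of replicate activation scores above 10%, or exactly half above 10 with the replicate mean above 10; inconclusive = replicate mean below 10 yet half the replicates above 10; inactive = over half of replicates below 10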;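 also: wells of about 30 µL received 50 nL stock; many hits fall short of the cut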
LANA-H2B inh – blocks KSHV LANA binding to histone H2A/H2B; Q9QR71; cell-free LANA-H2A/H2B peptide, fluorescence polarization; inhibition, % (concentration not given with the values); 0.6% of 320,000 active; AID 2629; in the data active = inhibition mostly above about 10%, no sharp cut-off; inactive = mostly below about 6.7%;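 also: stock transfer was 7.5 nL into about 10 µL; 0% = median of vehicle wells and 100% = median of positive control wells; one replicate is shown; the record names a cut of 25% in any replicate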
UCH37 inh – human UCH37 deubiquitinating enzyme inhibition | inhibition, % (no concentration beside the values) | purified proteasome/UCH37, Ub-AMC cleavage fluorescence | 0.33% of 330,000 active | Q9Y5K5 | AID 588478;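 active = mean of two replicates above 20%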;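 also: 0% = compound-free wells with enzyme and 100% = wells lacking proteasome; stock transfer was 100 nL into about 20 µL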
Target sequence (Q9Y5K5 whole entry, looked up): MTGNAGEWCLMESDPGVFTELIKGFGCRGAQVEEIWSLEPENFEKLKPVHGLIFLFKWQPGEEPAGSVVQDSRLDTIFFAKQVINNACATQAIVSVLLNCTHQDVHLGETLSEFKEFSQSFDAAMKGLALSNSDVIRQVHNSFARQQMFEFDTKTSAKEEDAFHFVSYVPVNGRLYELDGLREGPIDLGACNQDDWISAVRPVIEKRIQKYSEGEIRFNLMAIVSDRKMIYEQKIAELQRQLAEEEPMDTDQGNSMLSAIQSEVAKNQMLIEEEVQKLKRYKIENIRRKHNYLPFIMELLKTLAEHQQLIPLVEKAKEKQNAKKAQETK
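assay system = human UCH37 enzyme supplied as purified proteasome complex | amount = proteasome at 0.15 nM in the dispensed enzyme solution | schedule = 30 min compound-proteasome preincubation then 25 min substrate reaction, room temperature | measured by = fluorescence, ex 355 nm, em 460 nm | benchmarks = no-proteasome wells (full inhibition) and compound-free wells (no inhibition)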
E coli growth – E. coli growth inhibition; 0.21% of 330,000 active; OD600 absorbance (test concentration not listed); Escherichia coli growth, OD600, 23 h; active compounds read low; AID 1053175;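 active = OD600 absorbance below the run mean of sample wells minus 3.6 SD, in any replicate, cut at about 0.56 in these data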;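 also: stock transfer was 300 nL into about 60 µL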
* hit, by the source's call; ? = inconclusive; / = no result given; & = joins results of further samples.

SMILES	Vif TR-FRET	Beta2AR agonist	HNF4A DNA FP	Bfl-1 A1 inh	LANA-H2B inh	UCH37 inh	E coli growth
Cc1ccc(-n2c(SCC(=O)N3CCOCC3)nc(O)cc2=O)cc1	/	8	4.4	-0.5	-12	2.1	0.71
CC1(C(=O)NC2CCCCC2)CCC(=O)N1Cc1cccs1 (stereo not drawn)	4%	0	0.5	-1.5	-2.9	4.6	0.77
COc1ccc(-c2nn(C)c(=O)c3ccccc23)cc1NS(C)(=O)=O	-7%	4	3.8	-0.5	-0.2	1.6	0.69
COc1ccc(N(CC(=O)Nc2ccc(F)c(F)c2)S(=O)(=O)c2c(C)n[nH]c2C)cc1	/	-5	-0.5	0.4	4.7	0.2	0.69
Cc1cc(NC(=O)CSc2nnnn2-c2ccccc2F)no1	/	2	-0.3	-0.5	1.3	5.2	0.68
COc1cccc(/C=C2\SC(=S)N(NS(=O)(=O)c3ccc(C)cc3)C2=O)c1OC	/	5	1.4	0.0	-3.5	/	/
CCCCSc1nc(O)c(C2OC(=O)c3c2ccc(OC)c3OC)c(=O)n1C (stereo not drawn)	3%	0	4.7	0.3	-1.8	4.5	0.67
O=C(COc1cccc(C(F)(F)F)c1)Nc1ccc2[nH]ncc2c1	2%	11	-2.8	0.2	-11	2.7	0.68
Cc1ccc2c(c1)c(-c1csc(N)n1)c(C)n2C	-3%	7	-3.9	0.3	2.7	2.3	0.7
O=C(N/N=C/c1ccc2c(c1)OCO2)c1sc2cccc(Cl)c2c1Cl	29%	3	-6.7	-1.1	-5.3	/	/
C=C1[C@@H](O)[C@H](CC(C)C)N(Cc2ccccc2Br)S1(=O)=O	/	40	-1.2	/	/	7.3	/
CC(C)(Oc1ccc(Cl)cc1)C(=O)NCc1ccco1	43µM*	11	4.2	0.2	9.5	-0.1	0.73
CCCCCCCC(=O)O	/	6	-2.3	/	/	4.5	0.68
CCCCC1=CC2=C(c3ccco3)C(=O)C(C)(OC(=O)c3ccc(OC)cc3)C(=O)C2=CN1CCCCO (stereo not drawn)	>100µM*	1	-1.3	1.9	3.8	1.1	0.63
COc1ccc(/C=N/NC(=O)c2ccc3c(c2)OCCO3)c(OC)c1	14%	0	-1.9	0.2	3.0	/	/
C/C=C(/C)C(=O)Nc1cccc(C2=NOC3(C2)C[C@@H](C(N)=O)N(C(=O)C2(C)CC2)C3)c1 (stereo partly drawn)	-8%	-6	-2.6	0.9	3.9	4.2	/
Cc1cc(Cl)ccc1OCCCC(=O)N1CCOCC1	25%	-2	3.0	1.4	3.0	1.8	0.67
COc1cccc(N(C(=O)Cn2nnc(-c3cccs3)n2)C(C(=O)NC2CCCCC2)c2ccncc2)c1 (stereo not drawn)	0%	-7	-1.8	?	4.3	1.8	0.69
CCOC(=O)c1[nH]c2ccccc2c1NC(=O)c1ccc(S(=O)(=O)N2CCCCC2)cc1	18%	-3	-0.4	-0.3	-4.1	-1.5	0.79
S=C(NN=C1CCCCCC1)Nc1ccc(Cl)cc1	18%	2	-2.1	0.3	-0.3	3.2	0.69
CN(C)/C=C/C(=O)c1cnc(-c2ccc(Cl)cc2)s1	/	-10	2.5	-0.2	2.4	-2.7	0.7
CC1=CC(=NOC(=O)c2cccc([N+](=O)[O-])c2)C=C(C)C1=O	6%	10	1.1	-1.4	3.5	4.2	0.69
COc1ccccc1C(=O)NCC(=O)N/N=C/c1cc(Br)ccc1OC(=O)/C=C\c1ccco1	/	-10	-3.0	0.4	7.3	/	/
CCOc1cc(Br)cc(C(c2c(C(=O)O)[nH]c3ccccc23)c2c(C(=O)O)[nH]c3ccccc23)c1O	/	4	-11	0.4	2.7	7.5	0.73
Cc1cc(NC(=O)c2ccco2)ccc1-n1cnnn1	20%	-7	-1.5	-3.4	-1.5	3.7	0.68
CC(=O)NS(=O)(=O)c1ccc2c(c1)Cc1cc(S(=O)(=O)NC(C)=O)ccc1-2	2%	-1	-4.5	0.9	3.0	2.0	0.69
CCOc1ccc(NC(=O)C(=O)N/N=C/c2ccccc2F)cc1	3%	-4	0.5	-0.8	6.1	/	/
Cc1ccc2nc(NC(=O)CNS(=O)(=O)c3ccc(Br)s3)sc2c1	-15%&0%	2	-2.4	1.6	2.6	-2.2	0.64
Cc1ccc(C2C(C(=O)c3ccco3)=C(O)C(=O)N2c2nnc(C)s2)cc1 (stereo not drawn)	-8%	2	-16	-1.0	0.0	7.6	0.7
CCOC(=O)C1CN(C(C)(C)C)C(=O)C1=O (stereo not drawn)	16%	3	2.4	-0.4	-0.1	-1.2	0.69
Cc1ccc(NC(=S)N(CCN(C)C)C(C)c2ccco2)cc1C (stereo not drawn)	/	10	-0.7	-2.6	2.4	3.9	0.7
CC(=O)N1CCN(C(=O)c2ccc(-c3cccc(C(F)(F)F)c3)o2)CC1	-2%	-4	4.4	0.6	1.3	3.6	0.68
CN(c1ccccc1C(=O)NCc1ccco1)S(C)(=O)=O	?	2	-2.5	-0.3	0.7	-1.2	0.7
CCc1ccccc1OCCCCCNCCO	-4%	1	-0.4	1.2	2.8	1.4	0.7
Cc1[nH]c2ccccc2c1CCCO	4%	/	/	0.5	0.5	-26	0.66
CCN(c1ccc(F)cc1)S(=O)(=O)c1cccc2nsnc12	-7%	-1	3.0	-0.4	1.2	3.3	0.68
CCOc1ccc(-n2c(C)c(C(C)=O)c3cc(OCC(N)=O)ccc32)cc1	/	-1	-5.3	-0.6	-0.2	-1.4	0.71
CC1CCC(NC(=O)COc2ccc(C(=O)c3ccccc3)cc2)CC1 (stereo not drawn)	-3%	-11	-1.2	0.7	-1.3	0.7	0.69
CC(C)=CCC/C(C)=C/CN(CC(C)O)CC(C)O (stereo not drawn)	6%	-1	2.6	0.0	-2.3	2.1	0.71
Cc1ccc(N(CC(=O)Nc2ccc(Br)c(C)c2)S(=O)(=O)c2c(C)[nH]c(=O)[nH]c2=O)cc1	1%	4	2.1	-0.9	-2.3	2.4	0.59
CC(=O)Nc1ccc(NC(=O)C2CC(=O)Nc3nc4ccccc4n32)cc1 (stereo not drawn)	0%	-11	1.5	0.4	-5.2	2.9	0.77
Cc1cccc2nc(CNC(=O)C3CCC(=O)N(Cc4ccccc4F)C3)cn12 (stereo not drawn)	/	-5	0.2	?	2.2	-0.6	0.73
Cc1c(CC(=O)NCCC(=O)O)c(=O)oc2cc3oc4c(c3cc12)CCCC4	/	-23	4.2	1.2	3.4	-23	0.67
COc1ccccc1CNC(=O)COC(=O)Cc1ccsc1	/	6	1.3	/	/	-1.0	0.73
COc1cccc(CN(C)C(=O)Cc2c[nH]c3ccccc23)c1	-7%	0	-0.9	0.6	-23	4.5	0.72
COc1cccc(C(=O)Nc2nnc(S(=O)(=O)N(C)Cc3ccc(F)cc3)s2)c1	/	11	8.5	-0.2	-0.8	2.8	0.68
COCCNC(=O)C(c1ccc(Cl)cc1)N(CCOC)C(=O)CCC(=O)Nc1ccccn1 (stereo not drawn)	-4%	4	-4.1	0.8	2.3	3.4	0.68
COc1ccc(OCCOC(=O)c2cc(S(=O)(=O)N3CCOCC3)c(Cl)cc2Cl)cc1	37%	21	-4.5	-0.1	-0.4	3.5	0.68
S=c1[nH]nc(C23CC4CC(CC(C4)C2)C3)n1Cc1ccco1	7%	-12	1.2	0.4	-4.6	-2.4	0.75
COc1cnc(-c2ccccn2)nc1Sc1c(Cl)cccc1Cl	?	2	2.3	0.0	-2.1	0.4	0.71
Cc1ccn2cc(CCNC(=O)COc3ccccc3)nc2c1	-2%	-4	0.9	0.9	1.4	-5.3	0.71
CC(SCc1ccccc1)C(=O)NC1CCCC1 (stereo not drawn)	1%	-6	-0.6	0.0	-3.7	6.1	0.69
COc1ccccc1NC(=O)c1[nH]c(C)c(C(C)=O)c1C	-5%	-4	1.5	-0.1	/	-1.9	0.71
COc1ccc(NC(=O)N2CCCC(CCC(=O)N(C)CCc3ccccn3)C2)cc1 (stereo not drawn)	-2%	2	3.8	-0.1	3.0	1.3	0.71
N=C1C(=O)OCC1c1ccccc1NC(=O)c1ccc(F)cc1 (stereo not drawn)	7%	-9	0.5	0.8	2.4	3.2	0.67
Cc1cc(OCC(C)C)ccc1/C(O)=C1/C(=O)C(=O)N(Cc2cccnc2)C1c1ccncc1 (stereo not drawn)	-13%	-2	-1.3	1.0	3.7	-2.2	0.72
Cc1ccc(NC(=S)N(CCN(C)C)Cc2cc3cc(C)cc(C)c3[nH]c2=O)cc1	/	2	2.0	-0.5	2.6	5.2	0.71
COc1cc(C)ccc1OCCCCNCc1ccccc1	-5%	0	-0.8	1.1	-2.6	0.4	0.65
Cc1nn2c(N3CCN(c4ccccn4)CC3)cc(C(C)C)nc2c1-c1ccccc1	1%&1%	6	-1.7	/	/	-172	0.72
O=C(Nc1ccc(F)cc1F)NC1CCN(S(=O)(=O)c2ccc(F)cc2)CC1	68%	-1	4.3	-0.1	-1.5	2.7	0.6

(listing goes on)
SMILES	Vif TR-FRET	Beta2AR agonist	HNF4A DNA FP	Bfl-1 A1 inh	LANA-H2B inh	UCH37 inh	E coli growth
CC1Oc2ccccc2N(CC(=O)c2cccc(Cl)c2)C1=O (stereo not drawn)	6%	-4	4.1	0.8	0.0	1.7	0.66
Cc1ccc(NC(=O)c2ccc(Cn3cc([N+](=O)[O-])cn3)cc2)c(C)c1	1%	-9	3.8	-0.5	-10.0	-1.2	0.69
O=c1sc2ccccc2c(N2CCOCC2)c1[N+](=O)[O-]	/	-4	2.4	0.0	2.9	0.0	0.64
COc1ccc(NC(=O)CCN2CCN(C/C=C/c3ccccc3)CC2)cc1	1%	-4	-0.1	0.2	-1.0	3.4	0.67
O=c1c2ccccc2c(-c2ccccc2)nn1-c1ccccc1	-10%	-16	-0.8	0.1	-0.7	1.8	0.69
CCn1ccnc1CN(C)Cc1nc(-c2cccc(Cl)c2)no1	23%	1	3.0	-0.4	0.3	-0.6	0.67
CCN(CC(=O)NCc1ccc(Cl)cc1)C(=O)CSCC(=O)Nc1ccc(OC)cc1	/	-10	0.0	0.1	-3.8	-1.1	0.71
O=C(CSc1nc2c(cnn2-c2ccc(F)cc2)c(=O)[nH]1)N1CCCCCC1	?	-10	-1.3	0.2	1.7	4.9	0.75
S=c1[nH]nc(-c2ccc(Cl)cc2Cl)n1Cc1ccccc1	-5%	3	-2.9	0.3	-0.1	1.3	0.67
COc1ccc(CN(C)C(=O)COC(=O)c2ccc3c(c2)OCO3)cc1OC	1%	13	0.3	-0.6	-4.0	0.6	0.73
COc1cc(SC)ccc1C(=O)Nc1ccc(Br)cn1	-133%	-4	0.1	-6.7	2.7	3.9	0.7
CCN(CC)C(=O)CSc1nnc(-c2ccccc2)n1N	1%	0	-2.3	1.1	2.6	6.9	0.68

Retrieved by structure from above:
SMILES	Vif TR-FRET	Beta2AR agonist	HNF4A DNA FP	Bfl-1 A1 inh	LANA-H2B inh	UCH37 inh	E coli growth
Cc1ccc(NC(=O)c2ccc(Cn3cc([N+](=O)[O-])cn3)cc2)c(C)c1	1%	-9	3.8	-0.5	-10.0	-1.2	0.69
O=C(CSc1nc2c(cnn2-c2ccc(F)cc2)c(=O)[nH]1)N1CCCCCC1	?	-10	-1.3	0.2	1.7	4.9	0.75
CCN(CC)C(=O)CSc1nnc(-c2ccccc2)n1N	1%	0	-2.3	1.1	2.6	6.9	0.68
CC1Oc2ccccc2N(CC(=O)c2cccc(Cl)c2)C1=O (stereo not drawn)	6%	-4	4.1	0.8	0.0	1.7	0.66
CCn1ccnc1CN(C)Cc1nc(-c2cccc(Cl)c2)no1	23%	1	3.0	-0.4	0.3	-0.6	0.67
COc1cc(SC)ccc1C(=O)Nc1ccc(Br)cn1	-133%	-4	0.1	-6.7	2.7	3.9	0.7
